Screens deposited in PubChem BioAssay by several laboratories.
Mtb betalactam = beta-lactam sensitization of Mtb H37Rv; 330,000 compounds, 0.27% hits; M. tuberculosis H37Rv growth with meropenem, percent inhibition; hits of this screen are not shown here; AID 434955; inhibition, % at 25 µM;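 active = about 74% or more and at least 40 points above the plate without the antibiotic, then above 30% in a dose series; inconclusive = first-round hits that could not be retested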;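 note: growth measured after seven days incubation then overnight dye step; 0% = bacteria only wells and 100% = bacteria with antibiotic; twin plates without the antibiotic show which effects depend on it; some results filed as inactive read as strong as hits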
YopH inh = blocks Yersinia enterocolitica YopH tyrosine phosphatase; 140,000 compounds, 0.16% hits; inhibition, %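 (about 10 µM by stock and volumes)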; AID 898; fluorescence Ex485/Em525;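 active = inhibition of 50% or more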;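 note: controls were vehicle for no effect and minimum signal wells for full effect; inactives centre near -20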
Arbovirus inh = blocks arbovirus infection | 200,000 compounds, 0.37% hits | arbovirus infection cell-based antiviral screen | inhibition, % at 10 µM;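 active = inhibition from about 30%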;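 note: bluetongue infection of BSR cells; cell survival read as ATP light after 72 h; 0% = infected wells without compound and 100% = uninfected wells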
Mtb growth = M. tuberculosis H37Rv growth inhibitors, H37Rv strain (AID 1626) | inhibition, % at 10 µM; hits with a dose series show IC50 in µM | M. tuberculosis H37Rv growth inhibition; higher % means a stronger effect | 220,000 compounds, 0.95% hits;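 active = confirmed in a dose series; inconclusive = inhibition above 80% but not taken into the dose series; inactive = below 80% or under 30% at every dose of the series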;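 note: bacteria incubated seven days before Alamar blue readout; 0% = bacteria only wells and 100% = bacteria with antibiotic wells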
RecA splice inh = inhibitors of M. tuberculosis RecA intein splicing; AID 2221; inhibition, %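 (about 9 µM by stock and volumes)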; P9WHJ3; cell-free RecA intein splicing, fluorescence; 290,000 compounds, 0.75% hits; in the data active = inhibition above about 30%; inconclusive = no clear call, values can overlap the other calls;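 note: 0% = vehicle wells and 100% = reference inhibitor control wells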
Target sequence (P9WHJ3 whole entry, looked up, canonical isoform): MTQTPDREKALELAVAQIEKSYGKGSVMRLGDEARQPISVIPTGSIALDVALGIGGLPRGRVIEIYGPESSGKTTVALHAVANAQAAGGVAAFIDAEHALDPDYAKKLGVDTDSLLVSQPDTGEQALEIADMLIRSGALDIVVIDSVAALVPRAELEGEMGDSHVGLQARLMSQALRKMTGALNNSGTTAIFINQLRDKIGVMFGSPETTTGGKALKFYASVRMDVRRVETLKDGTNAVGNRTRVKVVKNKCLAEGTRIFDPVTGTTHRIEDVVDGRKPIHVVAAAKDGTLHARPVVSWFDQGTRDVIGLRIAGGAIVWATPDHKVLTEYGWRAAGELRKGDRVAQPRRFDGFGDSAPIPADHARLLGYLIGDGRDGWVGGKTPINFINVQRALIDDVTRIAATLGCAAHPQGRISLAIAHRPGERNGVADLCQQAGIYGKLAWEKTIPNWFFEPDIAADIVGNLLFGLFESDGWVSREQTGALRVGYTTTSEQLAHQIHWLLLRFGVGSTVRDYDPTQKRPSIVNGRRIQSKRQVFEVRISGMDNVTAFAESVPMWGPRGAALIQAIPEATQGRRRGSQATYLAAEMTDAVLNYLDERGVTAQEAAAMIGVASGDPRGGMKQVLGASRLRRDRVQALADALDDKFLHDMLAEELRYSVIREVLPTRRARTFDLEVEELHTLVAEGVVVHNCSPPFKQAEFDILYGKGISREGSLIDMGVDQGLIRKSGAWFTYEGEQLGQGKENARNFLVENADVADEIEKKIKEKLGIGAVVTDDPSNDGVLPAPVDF
Arbovirus inh repeat = further read-out of Arbovirus inh, marked with its call; inhibition, %; measured here: 10K subset replicate screen; many hits read low in the repeat;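 first of two repeat runs on a subset; 0% = infected and 100% = uninfected wells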
Active calls of the source: *; ? = inconclusive; . = not tested or not shown.

SMILES	Mtb betalactam	YopH inh	Arbovirus inh	Mtb growth	RecA splice inh	others
Cc1ccc2cccnc2c1N	1	.	4	3%	-1.6
O=C(NCc1ccncc1)c1cc(C(=O)C2CC2)c[nH]1	0	.	-4	-2%	-5.5
COc1ccc(NC(=O)CSc2nnc(CCC(=O)O)c(=O)n2N)cc1	-4	.	10	0%	0.7
O=S(=O)(c1ccc(NC(=S)NC2CCCC2)cc1)N1CCCC1	-6	.	7	4%	2.8
COc1cccc(NC(=O)CN(C)C(=O)CC2CC3CCC2C3)c1 (centres undefined)	-10	.	.	.	5.3
O=C(COC(=O)c1ccncc1)Nc1cc(Cl)c(Cl)cc1Cl	.	-14	5	.	.
CCOC(=O)N1CCN(CC(O)c2ccc3cc[nH]c3c2)CC1 (centres undefined)	-6	-30	7	0%	-0.1	Arbovirus inh repeat=6
CCCN1Cc2cccc(C(=O)Nc3ccc4c(c3)OCCO4)c2C1=O	-1	-33	7	1%	0.1	Arbovirus inh repeat=-6
COC1CCCN(Cc2c(C(=O)N3CCN(C4CCCCC4)CC3)nc3ccccn23)C1 (centres undefined)	?	.	.	.	-15
COc1ccc2oc(=Nc3ccccc3)c(-c3nc4ccccc4[nH]3)cc2c1	19	-28	-8	-3%	-23
CC1CCCCC1NC(=O)CSc1nnc(CN2CCOCC2)n1C (centres undefined)	-2	-10	5	6%	-0.9
COC(=O)c1c(C(=O)OC)c2cc(C)ccn2c1Cl	8	-36	-2	3%	0.4
Nc1nn2cc(-c3ccc(Br)cc3)nc2c2ccccc12	5	.	.	4%	9.0
CCOC(=O)C1CCN(C(=O)Cn2ncc3c([nH]c4ccccc43)c2=O)CC1	3	.	.	.	1.0
c1ccc(-c2oc3ncnc(N4CCOCC4)c3c2-c2ccccc2)cc1	.	3	0	-1%	-1.9
CC1(C)CC(=O)C=C(Nc2ccc(F)c(Cl)c2)C1	8	.	.	.	-4.8
CCCOc1ccccc1C1CC(=O)Nc2cc3c(cc21)OCCO3 (centres undefined)	0	-39	-15	.	-1.4
COc1ccc2cc(S(=O)(=O)N3CCCCC3)ccc2c1S(=O)(=O)N1CCCCC1	-13	-30	7	-6%	0.5
CCCCC1=CC2=CC(=O)C(C)(OC(=O)CC)C(=O)C2=CN1Cc1ccccc1 (centres undefined)	-3	.	.	-2%	-1.1
CC(C)(C)CN1C(N)=NC[C@@H]1Cc1ccc(O)cc1	-12	.	.	0%	-3.1
CC(C)C(C)(C#N)NC(=O)CSc1nc2scc(-c3ccccc3)c2c(=O)[nH]1 (centres undefined)	-4	-29	29	-11%	4.7
CN(C)S(=O)(=O)c1ccc(NC(=S)NC(=O)Cc2ccccc2)cc1	0	.	1	-4%	1.4
O=C(N/C(=C/c1ccc([N+](=O)[O-])cc1)C(=O)N1CCOCC1)c1ccco1	0	.	.	.	-1.1
CCOC(=O)c1n[nH]c(=O)c2ccccc12	-4	.	1	2%	5.6
COc1ccc(CCNC(=O)CCS(=O)(=O)c2ccc3c(c2)NC(=O)CS3)cc1OC	2	.	.	.	0.0
COC(=O)N/N=C/c1cn(CCOc2ccccc2)c2ccccc12	-13	.	.	-12%	2.6
CCOC(=O)/C=C/c1ccccc1S(=O)(=O)NC(C)(C)C	-8	.	.	-6%	4.4
O=C(CSc1nnc(CNC(=O)c2cccc(C(F)(F)F)c2)o1)NC1CCCC1	?	.	.	.	0.9
COCCOC(=O)C1=C(C)N=C2SCCC(=O)N2C1/C=C/c1ccccc1 (centres undefined)	3	-43	16	-3%	1.5
Cc1cc2nc(C)c3c(n2n1)CCC3	-7	.	2	-6%	0.6

The closing 6 records of the section before come first, to join the parts:
SMILES	Mtb betalactam	YopH inh	Arbovirus inh	Mtb growth	RecA splice inh	others
COc1ccc(CCNC(=O)CCS(=O)(=O)c2ccc3c(c2)NC(=O)CS3)cc1OC	2	.	.	.	0.0
COC(=O)N/N=C/c1cn(CCOc2ccccc2)c2ccccc12	-13	.	.	-12%	2.6
CCOC(=O)/C=C/c1ccccc1S(=O)(=O)NC(C)(C)C	-8	.	.	-6%	4.4
O=C(CSc1nnc(CNC(=O)c2cccc(C(F)(F)F)c2)o1)NC1CCCC1	?	.	.	.	0.9
COCCOC(=O)C1=C(C)N=C2SCCC(=O)N2C1/C=C/c1ccccc1 (centres undefined)	3	-43	16	-3%	1.5
Cc1cc2nc(C)c3c(n2n1)CCC3	-7	.	2	-6%	0.6
O=C(c1ccc(F)cc1)N1CCC(N2CCCCCC2)CC1	0	-18	-7	-5%	-2.0
CN(C(=O)c1coc(=O)c2ccccc12)c1ccc(Br)cc1	-6	.	40*	3%	3.6
CC(=O)c1c(N)c(C#N)c(C)n1-c1ccc(Br)cc1	-11	34	3	-4%	0.7
CC1CCCCN1C(=O)C12CCC(C)(C(=O)C1)C2(C)C (centres undefined)	5	-22	4	0%	1.0
O=c1oc2ccccc2cc1-c1cn2cccnc2n1	-1	-20	-2	-2%	-18
O=C(N/N=C/c1ccc(N2CCOCC2)cc1)c1ccccc1NS(=O)(=O)c1cccs1	9	.	-1	9%	-4.3
O=C(N/N=C/c1ccc(Br)s1)c1ccc([N+](=O)[O-])cc1	2	.	7	5%	-1.1
COC(=O)c1sccc1OC(C)C(C)=O (centres undefined)	-1	-23	-3	1%	-3.8
Cn1cccc1CNC1CCCCC1	-9	-15	2	-6%	-2.1
CCN(CC)CCCNC(=O)c1cc(-c2ccc(Cl)cc2)on1	-7	8	-31	-1%	0.5
CC(=O)Nc1ccc(-c2cn3cccnc3n2)cc1	-10	-48	2	-11%	-14
CCOC(=O)N1CCN(S(=O)(=O)c2cccc3nonc23)CC1	-4	-15	0	-2%	-0.9	Arbovirus inh repeat=-3
O=C(CSc1nc2ncc(Br)cc2[nH]1)c1ccc([N+](=O)[O-])cc1	1	-18	-6	4%	8.8
NC(=O)Cn1nc(C(F)(F)F)c2c1CCCC2	-5	.	2	-2%	0.7
COc1ccc(CCn2nnnc2C(c2ccc(Cl)cc2)N2CCN(C)CC2)cc1OC (centres undefined)	-4	-10	12	1%	-0.9
Cc1noc(C)c1CC(=O)N1CCCC(N2CCN(c3ccccc3F)CC2)C1 (centres undefined)	-6	.	.	.	0.3
CC(C)C(O)P(=O)(OCc1ccccc1)c1ccc(N(C)C)cc1 (centres undefined)	-8	-34	-4	-4%	0.6
O=C(O)CN1C(c2ccccc2)=Nc2ccc(Br)cc2C1c1ccccc1 (centres undefined)	6	.	3	1%	1.1
CC(=O)NCCc1nc2cc(NC(=O)c3ccc([N+](=O)[O-])cc3)ccc2n1C	0	.	.	.	-1.3
Cc1nc(-c2cccc(NC(=O)c3ccc(Br)o3)c2)cs1	3	.	.	.	4.0
CCc1[nH]c(C)c(C(C)=O)c1C	-2	-23	4	-6%	0.6
Cc1ccc(CC(=O)NCCS(=O)c2ccc(Cl)cc2)cc1 (centres undefined)	2	-49	1	6%	-2.7
O=C(CN1C(=O)COc2ccccc21)NCCCN1CCCC1	0	.	.	.	0.9
Cc1ccc(NC(=S)NCc2ccc(Cl)cc2)c(C)c1	10	.	.	.	2.9
CCC(CC)Nc1ccc(C(CC(N)=O)NC(=O)Cc2cccc3ccccc23)cc1[N+](=O)[O-] (centres undefined)	-4	.	.	.	-0.2
OCc1nnn(-c2ccccc2)c1CO	5	.	.	-16%	-0.9
Cc1cccc(OCC(=O)N2CCN(C(=O)Cc3ccccc3)CC2)c1	1	-11	4	0%	-0.6	Arbovirus inh repeat=1
COc1cccc(CN(C(=O)/C=C/c2ccc(Cl)cc2)C2CCS(=O)(=O)C2)c1 (centres undefined)	-4	.	-4	-2%	-0.2
Cc1c(NC(=S)NC(=O)c2cc3ccccc3o2)cccc1C(=O)O	?	.	.	.	-0.8
CCCCn1c(N)c(N(CCOC)C(=O)c2ccc(S(=O)(=O)N3CCCCCC3)cc2)c(=O)[nH]c1=O	-6	.	.	.	0.3
COc1ccc2[nH]cc(CCN(C)C)c2c1	0	.	5	0%	-0.4
COC(=O)C1=C(C)N(CCCC(=O)O)C(=O)NC1c1ccccc1OS(=O)(=O)c1ccccc1[N+](=O)[O-] (centres undefined)	3	.	.	-3%	-3.7
COc1ccc(C(=O)C2CCCN(C(=O)Cn3ccc(C)n3)C2)cc1OC (centres undefined)	1	.	-2	-3%	.
CSCCCNC(=S)N1CCN(c2ccc(C(C)=O)cc2)CC1	26	.	11	-5%	8.4
COC(=O)C1=C(C)NC(C)=C(C(=O)OC)C1c1ccc(OC(=O)c2ccco2)cc1	-3	-46	-18	0%	1.4
O=C(NCc1ccco1)c1sc2ccccc2c1Cl	10	-16	-2	2%	3.2
CC1CCCC(C)N1/N=C/c1c[nH]c2ccc(Br)cc12 (centres undefined)	86	0	-34	20%	7.2
Cc1cc(CC(C)C)n(-c2nc3ccccc3c(=O)n2OCC(=O)N(C)C)n1	92	-13	-16	?	3.7
Cc1ccc(S(=O)(=O)Nc2c(O)c3ccccc3oc2=O)cc1	-4	.	.	.	-5.5
CC(C)(C)C(=O)Nc1cc(S(=O)(=O)N2CCCCC2)ccc1N1CCCCC1	1	.	-14	.	8.3
O=C1CC(=O)N(c2ccccc2)C(=O)N1c1ccccc1	3	.	.	.	-1.5
CS(=O)(=O)O/N=C1\CCCCC1c1ccc([N+](=O)[O-])cc1[N+](=O)[O-] (centres undefined)	-1	.	.	.	-3.2
CNC(=O)Cn1nc(-c2ccc(Cl)cc2)c2ccccc2c1=O	3	.	.	.	-1.4
C=CCOc1ccc(/C=C2\SC(=S)N(CCC(=O)O)C2=O)cc1	-15	.	.	-7%	4.8
COc1ccccc1NC(=O)CCNS(=O)(=O)c1ccc2c(c1)CCN2C(C)=O	2	.	.	.	-1.5

Brought forward from above: 6 entries, followed by the next part.
SMILES	Mtb betalactam	YopH inh	Arbovirus inh	Mtb growth	RecA splice inh	others
CC(C)(C)C(=O)Nc1cc(S(=O)(=O)N2CCCCC2)ccc1N1CCCCC1	1	.	-14	.	8.3
O=C1CC(=O)N(c2ccccc2)C(=O)N1c1ccccc1	3	.	.	.	-1.5
CS(=O)(=O)O/N=C1\CCCCC1c1ccc([N+](=O)[O-])cc1[N+](=O)[O-] (centres undefined)	-1	.	.	.	-3.2
CNC(=O)Cn1nc(-c2ccc(Cl)cc2)c2ccccc2c1=O	3	.	.	.	-1.4
C=CCOc1ccc(/C=C2\SC(=S)N(CCC(=O)O)C2=O)cc1	-15	.	.	-7%	4.8
COc1ccccc1NC(=O)CCNS(=O)(=O)c1ccc2c(c1)CCN2C(C)=O	2	.	.	.	-1.5
O=C(NCCSc1ccccn1)c1ccc(Cl)cc1	-6	.	-5	-4%	-1.2
COC(=O)NNC(=O)c1ccc(C(C)(C)C)cc1	-7	-27	6	-3%	1.5
Cc1[nH]c2ccccc2c1SCc1ccccc1	4	.	5	0%	2.5
Cn1c(N)c(C(=O)COC(=O)C2=NNC(=O)CC2)c(=O)n(C)c1=O	-2	.	.	-14%	-1.0
Cc1nc(N2CCN(C)CC2)c2cc(-c3ccccc3)sc2n1	-8	.	-6	-4%	.
Cc1nc2ncnn2c(C)c1CCC(=O)N1CCc2ccccc2C1	-1	-38	7	-19%	-0.8
O=C(CN(Cc1ccccc1)C(=O)CNS(=O)(=O)c1ccccc1)NCC1CCCO1 (centres undefined)	1	.	.	.	2.8
Nc1nc2nc(-c3ccccc3)cc(=O)n2[nH]1	-14	-15	5	-8%	0.3
COc1ccc2sc(NC(=O)NC(=O)c3c(Cl)cccc3Cl)nc2c1	-8	.	.	0%	-2.8
CC(C)Oc1ccc(CC(=O)NNC(=S)Nc2ccccc2)cc1	-7	.	.	-10%	1.0
O=C(CN1C(=O)c2ccccc2C1=O)N(CCO)Cc1ccccc1	-1	.	.	.	-1.5
CC(C)COc1ccc(C(=O)OC2CC(C)(C)OCC2CN(C)C)cc1 (centres undefined)	-15	-16	-7	-2%	-1.1
CC1CCCCC12NC(=O)N(Cc1cc(=O)n3ccsc3n1)C2=O (centres undefined)	-5	.	.	-3%	-2.0
COc1cc(/C=C2/NC(=O)N(Cc3ccccc3F)C2=O)ccc1Oc1ccc([N+](=O)[O-])cn1	3	-17	-2	4%	-1.8
Cc1ccc(NC(=O)C(OC(=O)c2ccc(C=O)cc2)c2ccccc2)cc1Cl (centres undefined)	0	-16	0	0%	7.4
COc1cccc(CN2CCNC(=O)C2CC(=O)NC2CCCCC2)c1OC (centres undefined)	0	.	.	.	-1.2
CCN1C[C@]2(C)CC[C@H](OC)[C@]34C2[C@H](OC(C)=O)[C@@]2(OCO[C@@]25C[C@H](OC)[C@H]2C[C@]3(O)C5[C@H]2OC)[C@@H]14	-5	.	.	.	-1.4
Cc1ccc2c(Cl)cc(Cl)c(OCC(=O)NCc3ccco3)c2n1	.	14	0	.	.

Only part of the results is shown; rates above refer to the full screens.
